Screening results: PubChem, National Center for Advancing Translational Sciences (NCATS)
D2 potentiator – human D2 receptor positive allosteric modulation; P14416; AID 624464; DiscoveRx D2 beta-arrestin cells, luminescence, 90 min; 100% = 57 uM dopamine signal; potentiation, % (test concentration not listed); actives 0.23% (n = 360,000); active = potentiation of 50% or more; inconclusive = 30% to 50%; inactive = 30% or less;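 further: compound concentration not given in the record; tested on top of an EC20 dose of dopamine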
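PathHunter beta-arrestin assay in DiscoveRx D2 cells. Compounds were added with an EC20 of dopamine (50 nM final) for 90 min at 37 deg C. Luminescence was read 1 h after detection reagent, with 57 uM dopamine as the EC100 control.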
CtBP-E1A blk – inhibitors of CtBP/E1A interaction. actives 0.49% (n = 340,000). AlphaScreen GST-E1A/His-CtBP binding, 1536-well; active compounds read low; control for the full effect not named in the record. AID 651724. activity change, % (concentration not given with the values); in the data active means activity change below about -65%; inconclusive means about -30% to -65%; inactive means above about -30%; further: on the % scale 0 is the no-effect control and ±100 the full control effect
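Protein mix (5X: 125 nM each GST-E1A, His-CtBP) was incubated with pinned compound 2 h at 37 deg C in dark, in 50 mM Tris pH 8.0 buffer with 300 mM NaCl. Glutathione donor and nickel acceptor beads followed; AlphaScreen signal read after 1 h.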
Six1-Eya2 inh – blocks human Six1 binding to Eya2; AlphaScreen GST-Six1/His-Eya2 binding, biochemical; active compounds read low; control for the full effect not named in the record; actives 0.56% (n = 360,000); activity change, % (no concentration beside the values); in the data active = activity change below about -65%; inconclusive = about -30% to -65%; inactive = above about -30%; further: on the % scale 0 is the no-effect control and ±100 the full control effect
Target sequence (O00167 whole entry, looked up): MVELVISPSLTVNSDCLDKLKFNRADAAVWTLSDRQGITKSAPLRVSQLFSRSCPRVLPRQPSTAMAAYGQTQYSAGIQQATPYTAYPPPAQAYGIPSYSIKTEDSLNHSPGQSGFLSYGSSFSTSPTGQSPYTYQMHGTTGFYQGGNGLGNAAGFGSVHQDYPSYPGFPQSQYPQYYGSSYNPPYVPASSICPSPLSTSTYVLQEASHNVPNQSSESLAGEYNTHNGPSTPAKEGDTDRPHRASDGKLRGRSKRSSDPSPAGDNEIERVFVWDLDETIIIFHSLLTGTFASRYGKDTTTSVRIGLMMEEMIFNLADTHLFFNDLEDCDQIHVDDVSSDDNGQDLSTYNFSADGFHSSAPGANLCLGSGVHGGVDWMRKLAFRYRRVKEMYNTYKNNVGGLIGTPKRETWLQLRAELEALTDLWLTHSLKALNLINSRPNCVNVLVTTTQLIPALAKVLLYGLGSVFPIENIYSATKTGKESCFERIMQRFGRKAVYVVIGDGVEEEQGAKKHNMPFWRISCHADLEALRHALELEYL
Target sequence (Q15475 whole entry, looked up): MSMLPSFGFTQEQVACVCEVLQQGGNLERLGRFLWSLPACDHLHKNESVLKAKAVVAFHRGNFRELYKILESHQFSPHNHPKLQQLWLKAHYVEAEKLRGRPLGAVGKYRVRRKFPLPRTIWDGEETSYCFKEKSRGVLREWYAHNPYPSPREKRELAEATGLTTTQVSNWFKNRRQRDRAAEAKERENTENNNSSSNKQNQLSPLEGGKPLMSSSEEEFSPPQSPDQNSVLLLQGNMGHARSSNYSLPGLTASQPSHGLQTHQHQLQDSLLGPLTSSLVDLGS
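Compounds are tested against tagged Six1 and Eya2 proteins bridged by glutathione donor and nickel acceptor beads; after a one-hour incubation at 37 °C without light, AlphaScreen emission is recorded.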
D2 ag – activates the human D2 dopamine receptor; DiscoveRx PathHunter D2 beta-arrestin, luminescence, 90 min; 100% = 57 uM dopamine signal; activation, % (concentration not given with the values); actives 0.084% (n = 360,000); AID 624465; in the data active = activation above about 40%; inconclusive = about 15% to 40%; inactive = below about 15%; further: compound concentration not given in the record; the text of the record calls up to 30% inactive
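DiscoveRx PathHunter D2 beta-arrestin cells (2,100/well) attached overnight, then compound-stimulated 90 min at 37 C in HBSS/10 mM HEPES/0.1% Tween-20 buffer; beta-galactosidase complementation read by luminescence after 1 h at ambient temperature. Dopamine 57 uM final (EC100) as control.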
gsp ag – activates gsp, the McCune-Albright syndrome mutation. gsp mutant cells, cAMP HTRF, 30 min; control for the full effect not named in the record. Potency, µM (top dose mostly 76.9 µM), for inactives: top-dose activation (cAMP increase), usual class: activators. actives 0.13% (n = 340,000); active = well fitted activation curve with a large enough effect; inconclusive = small, poorly fitted or top-dose-only effect, or another doubt; inactive = no such curve, though single readings can be large or run the other way; cell line not stated here;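 further: phosphodiesterase inhibitor Ro 20-1724 added with compounds to block cAMP breakdown; potency means the concentration at half of the fitted maximal effect; nearly all actives have a fitted effect of over 60% in size; about a fifth of the inactives were tested at one dose only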
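Cells stably selected in G418 were plated at 2000/well, grown 16-24 hr, then given compounds in DMSO with the PDE inhibitor […] (300 uM solution added) for 30 min at 37C; cAMP was read by HTRF.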
gsp antagonist – antagonists of gsp mutant (McCune-Albright syndrome); gsp-mutant cells, cAMP HTRF, 30 min; control for the full effect not named in the record; Potency, µM (series often up to 76.9 µM), for inactives: top-dose activity change, negative = inhibition, actives largely listed as inhibitors; actives 0.4% (n = 340,000); active = falling curve of any shape with a large fitted effect; inconclusive = falling curve, mostly with a smaller effect; inactive = flat or rising curve; cell line not stated here;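 further: intracellular cAMP measured with PDE inhibitor Ro 20-1724 present during compound exposure; potency means the concentration at half of the fitted maximal effect; on the % scale 0 is the no-effect control and ±100 the full control effect; nearly all actives have a fitted effect of over 65% in size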
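HTRF cAMP read-out (cAMP-d2 plus anti-cAMP antibody-K in lysis buffer, 30 min RT). Before lysis, cells are exposed to compounds with […] for 30 min at 37C in DPBS containing Ca/Mg, BSA and Tween 20.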
* = called active by the depositor; ? = inconclusive; · = no result given; & = joins results of further samples; [ ] = dose if it differs, or a comment.

A first look, 2 compounds:
SMILES | D2 potentiator | CtBP-E1A blk | Six1-Eya2 inh | D2 ag | gsp ag | gsp antagonist
COc1ccc(NC(=O)CCCN2C(=O)C3C4C=CC(C4)C3C2=O)c(OC)c1 (stereo not drawn) | 5 | 1 | 3 | -2.0 | -6% | 14%
O=C(Cc1c(Cl)cccc1Cl)Nc1ccncc1Cl | -4 | 1 | -1 | -0.6 | -15% | -17%

All compounds of this part, previewed entries included:
SMILES | D2 potentiator | CtBP-E1A blk | Six1-Eya2 inh | D2 ag | gsp ag | gsp antagonist
COc1ccc(NC(=O)CCCN2C(=O)C3C4C=CC(C4)C3C2=O)c(OC)c1 (stereo not drawn) | 5 | 1 | 3 | -2.0 | -6% | 14%
O=C(Cc1c(Cl)cccc1Cl)Nc1ccncc1Cl | -4 | 1 | -1 | -0.6 | -15% | -17%
Cc1ccc(NC(=O)N2CCN(c3ccccn3)CC2)cc1 | -11 | 1 | -3 | -1.5 | -1% | 6%
CC1CC(C)CN(S(=O)(=O)c2ccc(C(=O)NN3CCOCC3)cc2)C1 (stereo not drawn) | -2 | · | -6 | -13 | 2% | -10%
Cc1ccc(-c2cc(C(=O)N3CC4(C)CC3CC(C)(C)C4)no2)cc1 (stereo not drawn) | -6 | 9 | 16 | 0.3 | ? | 4%
Cc1ccccc1-c1csc(N)n1 | -1 | 3 | 5 | -2.5 | -17% | 18%
O=C(Nc1ccc(Nc2ccccc2)cc1)c1ccc(Cl)cc1[N+](=O)[O-] | -8 | · | 2 | 12 | -1% | -2%
CCCC[C@@H]1C=C(C(=O)O)[C@H](c2ccc(Br)cc2)N1S(=O)(=O)c1ccc(C)cc1 | -3 | -22 | -13 | 0.5 | · | -14%
CC(=O)Nc1ccc(NC(=O)/C(Cl)=C/c2ccccc2)cc1 | -8 | 0 | -9 | 2.5 | 6% | -17%
O=C(Nc1ccc(F)cc1)OCCN1CCN(Cc2ccccc2)CCC1=O | -21 | 4 | 5 | -1.0 | · | -1%
NC(=O)C1CCN(C(=O)c2ccc3c(c2)S(=O)(=O)c2ccccc2C3=O)CC1 | 9 | 0 | 4 | -0.1 | -23% | 4%
O=C(/C=C\c1ccccc1)Nc1nccs1 | -13 | 3 | -5 | -2.5 | 19% | 5%
CCC(=O)Oc1c(C(=O)CC)cc2c(C)cc(=O)oc2c1C | 2 | 8 | 6 | -2.9 | 0% | -8%
Cc1ccc(-c2cnc(C(O)c3ccc(Cl)c(F)c3)[nH]2)cc1 (stereo not drawn) | -13 | -23 | -19 | 3.1 | · | ·
COc1cc(C(=O)NCCOc2cccc3cccnc23)cc(OC)c1OC | -8 | 8 | 1 | -3.1 | -1%[15.4 µM] | -2%
O=C(/C=C/c1ccc(S(=O)(=O)NCc2ccco2)cc1)NCc1ccccc1Cl | -1 | -5 | -2 | 0.7 | 1% | 1%
COc1cc(C)c(S(=O)(=O)N2CCN=C2c2ccccc2)cc1C | -21 | 3 | -2 | -3.7 | 0% | 16%
Cc1cc(NS(=O)(=O)Cc2ccccc2)no1 | -1 | -1 | 4 | -1.3 | 23% | 4%
Cc1cccc(-n2ncc(C#N)c2-n2cccc2)c1 | -7 | 42 | 26 | -2.5 | 5% | -23%
COc1ccccc1C(=O)NCCC(=O)N1CC(C)OC(C)C1 (stereo not drawn) | -1 | 5 | -5 | -3.8 | 6%[15.4 µM] | 11%
Cc1ccc(CS(=O)(=O)Cc2ccc(C(=O)NC3CCCCCC3)o2)cc1 | -29 | 7 | -6 | -1.6 | 21% | -13%
COc1cc2c(cc1OC)C(COc1cc(C)cc(C)c1)N(C(C)=O)CC2 (stereo not drawn) | -10 | -4 | 0 | -0.9 | 12% | ?
O=[N+]([O-])c1cnc(N2CCCCC2)c([N+](=O)[O-])c1 | 17 | 1 | 2 | 3.4 | -5% | 9%
Nc1c(NCc2ccccc2)c2ccccc2oc1=O | -1 | -10 | -7 | -3.4 | -46%[inhibitor] | ?
CC(=O)c1cc(C#N)c(Oc2ccc(F)cc2)nc1C | -41 | 1 | 4 | -3.8 | ? | 4%
Cc1cc(S(=O)(=O)NCCc2ccccc2)c(C)s1 | -4 | 2 | 1 | -4.9 | -3% | -1%
O=c1cccccc1NCc1ccccc1 | -9 | -1 | 1 | 1.4 | 10% | 2%
Nc1nc(COC(=O)CCC(=O)c2ccc(Cl)cc2)nc(Nc2ccccc2)n1 | -1 | -12 | 0 | -2.6 | -53%[inhibitor] | -11%
CCc1cccc(NC(=O)Cn2cccc2)c1 | -9 | -4 | -9 | 0.7 | -15% | 8%
Nn1c(=O)c2ccccc2n2c(SCc3ccc(C(F)(F)F)cc3)nnc12 | -12 | 0 | 1 | -1.0 | ? | -8%
O=C1CSC(c2cccc(O)c2)N1Cc1ccccc1 (stereo not drawn) | -5 | · | -3 | 4.5 | -5% | 3%
Cc1ccc(Cc2nnc(SCC(=O)Nc3c(C)cccc3C)[nH]c2=O)cc1 | -9 | -2 | 6 | -0.8 | -22% | -14%
COc1cccc(C(=O)Nc2ccccc2N2CCOCC2)c1 | -4 | -2 | 3 | 2.1 | -2% | -4%
CC(=O)Nc1ccc(S(=O)(=O)NC2=C(N3CCN(Cc4ccccc4)CC3)C(=O)c3ccccc3C2=O)cc1 | -3&-11 | ? | ? | 0.5&0.9 | 22%&7% | -17%&-24%
C[C@@H]1CN([C@@H](C)CO)C(=O)CCCn2nncc2CO[C@@H]1CN(C)S(=O)(=O)c1ccc2c(c1)OCCCO2 | · | 1 | 0 | -0.8 | 16% | ·
Cc1nc2ccc(NC(=O)c3cccc(S(=O)(=O)N4CCOCC4)c3)cc2s1 | -8 | -18 | ? | -3.6 | -4%[15.4 µM] | -12%

Some of the entries so far, with the structure last:
D2 potentiator	CtBP-E1A blk	Six1-Eya2 inh	D2 ag	gsp ag	gsp antagonist	SMILES
-8	·	2	12	-1%	-2%	O=C(Nc1ccc(Nc2ccccc2)cc1)c1ccc(Cl)cc1[N+](=O)[O-]
-7	42	26	-2.5	5%	-23%	Cc1cccc(-n2ncc(C#N)c2-n2cccc2)c1

Following part.
SMILES | D2 potentiator | CtBP-E1A blk | Six1-Eya2 inh | D2 ag | gsp ag | gsp antagonist
COc1ccc(NC(C)=O)cc1NC(=O)C1CCN(C(=O)Nc2ccccc2)CC1 | 4 | -2 | 9 | -0.5 | -67%[inhibitor] | 0%
Cc1ccc2c(CN3CCN(C(=O)c4ccco4)CC3)cc(=O)oc2c1C | -3 | 1 | -1 | 1.3 | -1% | -12%
CN(C)S(=O)(=O)c1cccc(NC(=O)C2CCN(S(=O)(=O)c3cccs3)CC2)c1 | -13 | -11 | -1 | 1.0 | 13% | -9%
CC(NC(=O)OCc1ccccc1)C(=O)OCN1C(=O)c2ccccc2C1=O (stereo not drawn) | -3 | 3 | 10 | -4.6 | -50%[inhibitor] | -13%
CCOC(=O)CN(C(=O)CSc1nnc(CNc2ccc(C)cc2C)o1)c1ccccc1 | 6 | -10 | -5 | 0.2 | -25% | -8%
Cc1cccc(N2CCN(C(=O)c3ccccn3)CC2C)c1 (stereo not drawn) | -1 | 4 | -2 | 4.8 | -22% | 8%
CC(C)(C)c1cc(N)n2nc(C(C)(C)C)cc2n1 | -13 | · | 12 | 1.0 | -2% | -3%
CCc1nn2c(=O)cc(COc3ccc(/C=C4\C(=N)N5N=C(CC(C)C)SC5=NC4=O)cc3)nc2s1 | -10 | · | 3 | -5.4 | 26% | -13%
COc1ccc(-c2[nH]ncc2/C=C(\C#N)C(=O)NC2CC2)cc1 | 3 | 2 | 4 | 3.6 | -41%[inhibitor] | 12%
CN(C)C(=O)c1ccc(-n2cnc3ccccc3c2=O)cc1 | -5 | 3 | 2 | -4.0 | 4% | 6%
O=C(Nc1ccccc1C(=O)O)c1cc(S(=O)(=O)Nc2ccccc2)ccc1Cl | 12 | 6 | 1 | 4.4 | 3% | -9%
CC(C)COc1ccc(/C(=N/O)c2ccccc2)cc1 | 18 | -2 | 0 | -0.6 | -39%[inhibitor] | -2%
Cc1cc(C(C)(C)C)n2nc(C)c(-c3ccccc3)c2n1 | -2 | -5 | -7 | -5.1 | 29% | 9%
CCOc1ccc(N(CC(=O)N2CCCC2)S(=O)(=O)c2ccc(Cl)cc2)cc1 | -3 | -8 | -9 | -2.4 | -7% | -6%
CN(CCCC(=O)NCc1ccccc1)S(=O)(=O)c1ccc([N+](=O)[O-])cc1 | 2 | 5 | 0 | 1.0 | -36%[inhibitor] | 0%
CN(C)C(=O)CSc1nnc([C@H](Cc2ccccc2)NC(=O)OC(C)(C)C)o1 | -18 | 9 | 12 | -2.4 | -3%[15.4 µM] | -13%
C/C(=N\NC(=O)C(C)Sc1ccccc1)C(C)(C)C (stereo not drawn) | -13 | -2 | 1 | -1.2 | -42%[inhibitor] | 4%
O=C1N=c2ccccc2=C1c1sc(Nc2cccc(O)c2)nc1O | 15 | · | -3 | -4.8 | -61% | ?
CC(C)Oc1ccc(C(=O)NC2CCSc3ccccc32)cc1 (stereo not drawn) | -11 | 10 | -14 | -1.3 | -12% | 10%
Cc1nc2ccc(Cl)cc2n1C | -4 | 11 | 13 | 0.2 | 4% | ·
CCn1c(=O)c(C(=O)CN(C)CC(=O)Nc2ccccc2Br)c(N)n(Cc2ccccc2)c1=O | -9 | 0 | -13 | -4.6 | -31% | -2%
O=C(COC(=O)c1ccccc1)Nc1cccc(S(=O)(=O)N2CCOCC2)c1 | -2 | -13 | -20 | 3.8 | 5% | -5%
CN(C)CCCn1c2c(c(SCC(=O)Nc3ccc4c(c3)OCCO4)nc1=O)CCCC2 | -16 | 0 | 2 | -2.4 | ? | ·
Cc1nc(-c2cccc(NS(C)(=O)=O)c2)cs1 | -7 | 5 | 1 | -2.8 | 8% | 9%
COC(=O)Nc1ccc(OC)c(OC)c1 | -24 | 4 | 0 | 0.0 | -18% | 6%
O=C(CSCc1cccc(F)c1)NCc1ccccc1 | 2 | 3 | 5 | -1.2 | 3%[15.4 µM] | 4%
Cc1ccc(S(=O)(=O)NCC2CCC(C(=O)NCc3cccnc3)CC2)cc1 (stereo not drawn) | -2 | 1 | 15 | -2.0 | 22%[15.4 µM] | -7%
O=C(CC(c1ccc(F)cc1)c1ccco1)Nc1nccs1 (stereo not drawn) | 11 | 0 | -11 | -4.6 | 6%[15.4 µM] | -5%
CC(=O)c1ccc(NC(=O)Oc2ccccc2)cc1 | -10 | 0 | -6 | 0.8 | 3% | -15%
Cc1ccc(S(=O)(=O)NNC(=O)c2cnn(-c3ccccc3)c2C(F)(F)F)cc1 | 3 | · | -1 | 2.4 | -35%[inhibitor] | -6%
CCCc1ccc(-c2cc(C(=O)N/N=C/c3ccc([N+](=O)[O-])o3)c3ccccc3n2)cc1 | ? | -18 | -22 | 3.4 | -2% | 5%
Cc1ccc(/C=C/S(=O)(=O)NCc2ccc(F)cc2)cc1 | -4 | 0 | -2 | 2.2 | 3% | 4%
COc1ccc([C@@]2(O)c3c(ccc(CC=C(C)C)c3O)NC(=O)[C@@H]2OC)cc1 | -14 | 5 | -1 | 2.6 | · | -2%
